Compound activity as filed in PubChem BioAssay.
TRPML1 inh – qHTS for Inhibitors of the Human Mucolipin Transient Receptor Potential 1 (TRPML1) | Mucolipin-1 (Homo sapiens), Q9GZU1 | TRPML1-inducible cells, Ca2+ dye fluorescence, FDSS; hits give low values; inhibition of EC80 agonist-evoked calcium signal | activity change, negative = inhibition, % (no concentration beside the values) | 390,000 compounds, 0.02% hits | AID 624415, 2012; in the data active means activity change below about -50%; inconclusive means about -30% to -50%; inactive means above about -30%;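 note: stimulus is agonist 54-4 at its EC80 concentration; % is set by controls: 0 for no effect and ±100 for the full control effect; compound concentration not given in the record; the text of the record puts the active cut at -80%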
Target sequence (Q9GZU1 whole entry, looked up): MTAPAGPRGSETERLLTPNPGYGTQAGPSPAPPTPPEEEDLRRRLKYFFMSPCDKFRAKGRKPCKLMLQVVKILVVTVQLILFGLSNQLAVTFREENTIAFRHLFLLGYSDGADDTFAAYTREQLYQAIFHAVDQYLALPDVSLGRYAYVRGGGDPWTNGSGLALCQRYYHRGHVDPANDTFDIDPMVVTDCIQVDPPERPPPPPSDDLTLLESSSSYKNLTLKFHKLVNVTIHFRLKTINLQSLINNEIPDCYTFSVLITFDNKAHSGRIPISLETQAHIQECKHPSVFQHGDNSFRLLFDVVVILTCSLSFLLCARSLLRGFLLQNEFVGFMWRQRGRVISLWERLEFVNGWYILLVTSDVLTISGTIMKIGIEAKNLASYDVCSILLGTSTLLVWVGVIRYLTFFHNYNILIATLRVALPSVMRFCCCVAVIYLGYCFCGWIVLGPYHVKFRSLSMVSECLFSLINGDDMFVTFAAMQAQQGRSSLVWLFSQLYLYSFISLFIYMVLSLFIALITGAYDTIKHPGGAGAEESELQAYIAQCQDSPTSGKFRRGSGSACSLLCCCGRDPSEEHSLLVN
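Calcium fluorescence in TRPML1-DL cells induced overnight with Tet: a 110 s read after compound pin addition, then a 110 s antagonist read after challenge with 54-4 at 4 uM final (EC80).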
ClpP mod – qHTS Assay for Activators of ClpP; purified B. subtilis ClpP, FRET peptide cleavage, 20 min; Potency, µM (titrated, usually from 57.5 µM), for the others: at the highest dose activity change, negative = active; 340,000 compounds, 1.9% hits; active = well fitted falling curve with a large enough effect; inconclusive = small, poorly fitted or top-dose-only effect; inactive = no such curve, though single readings can be large or run the other way; note: potency is the fitted concentration of half-maximal effect; the source files actives as falling curves though it sought activators and does not explain the sign; nearly all actives have a fitted effect of over 65% in size; many hits overshoot -100%
Target sequence (P80244 whole entry, looked up): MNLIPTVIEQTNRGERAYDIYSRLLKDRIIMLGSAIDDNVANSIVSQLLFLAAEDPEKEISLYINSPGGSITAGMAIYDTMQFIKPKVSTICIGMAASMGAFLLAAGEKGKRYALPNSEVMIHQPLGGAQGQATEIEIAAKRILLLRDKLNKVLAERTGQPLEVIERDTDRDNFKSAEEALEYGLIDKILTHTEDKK
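Purified B. subtilis ClpP, 10 microg/mL final in Tris/HCl pH8 with KCl, BSA, glycerol and Tween-20, cleaved an Abz/nitrotyrosine-quenched decapeptide. Fluorescence (ex 320, em 430) was read at 0 and 20 min at room temperature. Delta was normalized to 5.8 microM ADEP and DMSO/no-enzyme controls.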
gsp ag – qHTS for Agonist of gsp, the Etiologic Mutation Responsible for Fibrous Dysplasia/McCune-Albright Syndrome: qHTS; gsp mutant cells, cAMP HTRF, 30 min; control for the full effect not named in the record; 340,000 compounds, 0.13% hits; Potency, µM (doses to about 76.9 µM), without a hit: at the top dose activation (cAMP increase), most hits filed as activators; active = well fitted activation curve with a large enough effect; inconclusive = small, poorly fitted or top-dose-only effect, or another doubt; inactive = no such curve, though single readings can be large or run the other way; cell line not stated here;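 note: phosphodiesterase inhibitor Ro 20-1724 added with compounds to block cAMP breakdown; potency is the fitted concentration of half-maximal effect; nearly all actives have a fitted effect of over 60% in size; about a fifth of the inactives were tested at one dose only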
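Cells stably selected in G418 were plated at 2000/well, grown 16-24 hr, then given compounds in DMSO with the PDE inhibitor […] (300 uM solution added) for 30 min at 37C; cAMP was read by HTRF.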
Menin-MLL FL inh – qHTS Assay for Inhibitors Targeting the Menin-MLL Interaction in MLL Related Leukemias: Competition With Fluorescein Labeled MLL-derived Peptide | Fluorescence polarization, fluorescein-MLL peptide displacement from menin | FP activity change, % at 61.4 µM | 290,000 tested, under 10 active; inconclusive = falling polarisation curve, or a change in total fluorescence; inactive = total fluorescence flat and polarisation flat or rising; no compound was filed as active; the % refers to the polarisation; negative = inhibition;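 note: % of control where 0% means no effect; inhibitors lower the polarisation; unlabelled MLL peptide was the positive control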
gsp antag – qHTS for Antagonists of gsp, the Etiologic Mutation Responsible for Fibrous Dysplasia/McCune-Albright Syndrome: qHTS; 340,000 compounds, 0.4% hits; Potency, µM (series often up to 76.9 µM), inactives show top-dose activity change, negative = inhibition, hits mostly inhibitors; gsp-mutant cells, cAMP HTRF, 30 min; control for the full effect not named in the record; AID 624288, 2012; active = falling curve of any shape with a large fitted effect; inconclusive = falling curve, mostly with a smaller effect; inactive = flat or rising curve; cell line not stated here;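 note: intracellular cAMP measured with PDE inhibitor Ro 20-1724 present during compound exposure; potency is the fitted concentration of half-maximal effect; % is set by controls: 0 for no effect and ±100 for the full control effect; nearly all actives have a fitted effect of over 65% in size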
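Cells in G418 medium, seeded 16-24 h, 37C; buffer exchange to DPBS + 1 mM CaCl2, 0.5 mM MgCl2, 0.05% BSA; cpds in DMSO + […] (300 uM stock), 30 min 37C; HTRF cAMP detection.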
TRPML1 ag – qHTS for Agonists of the Human Mucolipin Transient Receptor Potential 1 (TRPML1). Mucolipin-1 (Homo sapiens), Q9GZU1. TRPML1-expressing cells, Ca2+ dye fluorescence, FDSS; host cell line not named in the record; reference of the full effect not given here. activation, % (concentration not given with the values). AID 624414, 2012. 410,000 compounds, 0.12% hits; in the data active = activation above about 50%; inconclusive = about 30% to 50%; inactive = below about 30%; note: 0% is about no effect; the text of the record puts the active cut at 80%
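In this qHTS format, compounds were pin-transferred onto Ca8-dye-loaded TRPML1-DL cells induced with Tet overnight, and intracellular Ca2+ fluorescence was recorded kinetically for 110 s after a 10 s baseline. A subsequent 4uM final 54-4 (EC80) addition followed by a second 110 s read served as the antagonist phase.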
* = called active by the depositor; ? = inconclusive; nt = not tested or not shown; & = joins results of further samples; [ ] = another dose, or the depositor's remark.

SMILES	TRPML1 inh	ClpP mod	gsp ag	Menin-MLL FL inh	gsp antag	TRPML1 ag
CCOc1cc(N2CCOCC2)c(OCC)cc1NC(=O)CN1CCc2ccccc2C1	28	0.2%	?	4.8	-3%	1.2
CC(=O)/C(=N\Nc1ccc(Cl)cc1)Sc1nnc(-c2ccccc2)n1-c1ccccc1	-1	-0.9%	-5%[15.4 µM]	2.7	-26%	-0.3
CCc1ccc2[nH]cc(C(=O)OCCOC)c(=O)c2c1	7	0.7%	8%	-1.9	12%	1.8
CC(C)(C)NC(=O)CC1C(=O)NCCN1Cc1c(F)cccc1Cl (configuration not stated)	-10	nt	-17%[15.4 µM]	-2.1	1%	-0.2
CCCc1c(O)nc(SCCN(CC)CC)n(C(=O)c2ccccc2)c1=O	-2	-0.3%	-17%	-1.2	8%	-0.5
Cc1ccc(CNC(=O)c2cc3c(s2)-c2ccc(Cl)cc2SC3)cc1	53	4.3%	nt	nt	nt	2.7
CCOc1ccc(NS(=O)(=O)c2csc(C(N)=O)c2)cc1	0	1.6%	-28%[15.4 µM]	2.7	7%	0.4
CCN=C1S/C(=C\c2cn(CC(=O)NCCOC)c3ccccc23)C(=O)N1CC	2	-6.2%	?	19	-5%	-0.5
CCOP(=O)(OCC)C(NC(=O)NS(=O)(=O)c1ccc(C)cc1)c1ccccc1 (configuration not stated)	-10	-1.3%	11%[15.4 µM]	-6.5	11%	-0.8
COc1ccccc1/C=N/NC(=O)COCC(=O)N/N=C/c1ccccc1OC	0	nt	-7%[15.4 µM]	8.2	3%	3.9
CCOC(=O)N1CCN(C(=O)C2CCN(c3nnc(-n4cccc4)s3)CC2)CC1	1	1.5%	11%	1.2	-8%	4.6
CCc1nc(N2CCN(C(C)=O)CC2)c(C#N)c2c1COC(C)(C)C2	-15	3.7%	-21%	5.5	5%	2.1
CCOc1ccc(-c2cc3c(=O)n(CC(=O)NCc4ccc(C)cc4)ccn3n2)cc1	15	-11%	nt	nt	nt	0.8
Cc1cc(=O)oc2cc(OCC(=O)N3CC(=O)Nc4ccccc43)c(Cl)cc12	21	3.4%	5%	nt	-8%	-0.3
COC(=O)c1sccc1NC(=O)c1cc(OC)c(OC)c(OC)c1	14	?	28%	-2.4	15%	-0.1
O=C(Nc1cccc(C(=O)N2CCOCC2)c1)C1CC1	-16	-0.2%	nt	nt	4%	1.0
O=C(COC(=O)C1(c2ccc(Cl)cc2)CCCC1)NC1CCS(=O)(=O)C1 (configuration not stated)	-2	-0.1%	-11%	4.5	8%	0.5
NC(=O)C1CCN(C(=O)Nc2csc3ccccc23)CC1	-14	-0.6%	-74%[inhibitor]	4.2	13%	1.0
Cn1c(-c2ccccc2)cccc1=O	9	-1.1%	-7%	-0.1	-14%	-0.3
N/C(Cn1cncn1)=N\OC(=O)c1ccc(Cl)cc1	11	nt	12%[15.4 µM]	-1.9	11%	1.3
COCCNC(=O)CCCC(=O)NCCOC	3	-3.2%	2%	1.9	16%	0.5
CCOC(=O)C(C(=O)OCC)C1OC(=O)c2cc3c(cc21)C(=O)OC3C(C(=O)OCC)C(=O)OCC (configuration not stated)	3	nt	7%[15.4 µM]	-2.5	7%	-0.1
CN1C=C/C(=C\c2cc[n+](C)c3ccccc23)c2ccccc21	-2	-1.8%	-32%[inhibitor]	-15	?	-0.3
S=c1[nH]c(-c2ccccc2)cn1/N=C/c1ccc(Br)cc1	-4	nt	-2%[15.4 µM]	2.6	nt	0.5
O=C(NC(c1ccccc1)c1ccccc1)c1cccc(S(=O)(=O)NCc2ccccc2)c1	7	1.0%	0%	-2.8	-1%	4.1
COc1ccc(S(=O)(=O)N2CCC(C(=O)N[C@@H](C)C(=O)N3CCCCCC3)CC2)cc1	4	0.7%	-44%[inhibitor]	3.1	16%	-0.7
CC(=O)c1cccc(NC(=O)CC(C)n2ccnc2)c1 (configuration not stated)	-10	nt	0%	-0.1	10%	0.0
CC(C)CSc1nc2ccccc2[nH]1	52	1.9%	21%	4.6	-7%	0.4
Cc1ccc(CN2CCN(C3CCN(C(=O)Nc4ccccc4C(F)(F)F)CC3)C(=O)C2=O)cc1	-6	1.2%	nt	nt	nt	0.6
COC(=O)c1ccc2nc(-c3ccc(C)cc3)c(Cc3ccsc3)n2c1	-4	-25%	nt	nt	nt	0.1
CCN(CC)CCNS(=O)(=O)c1ccc(C(=O)NN)cc1	14	nt	-3%	0.3	-41%	-0.2
CCNC(=O)N1c2ccc(OCC)cc2C(C)=CC1(C)C	16	-22%	6%	-1.4	?	0.2
CCS(=O)(=O)c1nc(S(=O)(=O)c2ccc(C)cc2)c(NCCCN2CCCC2=O)s1	-2	-2.6%	?	-7.7	12%	0.7
O=C(O)c1cn(C2CC2)c2cc(N3CCN(S(=O)(=O)c4ccc5c(c4)OCCO5)CC3)c(F)cc2c1=O	-3	3.6%	-28%	8.6	?	0.3
COc1ccc(C2CC(C)(c3ccc(OC)cc3OC)Nc3ccccc3N2)c(OC)c1 (configuration not stated)	-21	nt	-15%[15.4 µM]	1.8	0%	-0.2
CC(=O)N1CCC(Nc2ccc(C)cc2)CC1	-12	-3.0%	?	0.7	4%	-0.4
CN(c1ccccc1)S(=O)(=O)c1ccc(NC(=O)CC(=O)c2ccccc2)cc1	-9	-2.3%	-23%	nt	-7%	0.8
CN(CC(=O)Oc1ccc(-c2nnco2)cc1)S(=O)(=O)c1ccc(F)cc1	-4	0.5%	-15%	nt	-11%	-0.6
COc1cc(NC(=O)c2ccc(C)cc2)c(OC)cc1NC(=O)CN1CCOCC1	1	1.6%	19%	-5.3	2%	-0.9
COc1cc(NS(=O)(=O)c2ccc(NC(=S)NC(=O)c3ccc(F)cc3)cc2)nc(OC)n1	11	nt	4%[15.4 µM]	0.2	-27%	0.5
Cc1ccc(Cl)cc1NC(=O)c1cc2c(=O)n3cccc(C)c3nc2n1C	3	3.7%	nt	nt	nt	-1.1
COc1ccc(NC(=O)CC2Oc3ccc(C)cc3NC2=O)cc1Cl (configuration not stated)	-7	-7.2%	nt	nt	nt	-0.1
Cc1ccc(CCNC(=O)c2ccc(CSCc3ccccc3C)o2)cc1	-14	0.3%	nt	nt	nt	3.9
O=C(CSCC(=O)OCn1nnc2ccccc2c1=O)Nc1ccc(Cl)cc1	3	1.3%	?	2.4	-15%	0.2
CSc1cccc(NC(=O)Cn2c3ncccc3c(=O)n2-c2ccc(C)cc2)c1	49	25µM*	nt	nt	nt	1.2
Cc1ccc(S(=O)(=O)N2CCC(C(=O)NC3CC(C)(C)NC(C)(C)C3)CC2)cc1	-5	nt	-8%[15.4 µM]	nt	11%	-0.3
C/C(CCC(C)C)=N\NC(=S)NCc1ccccc1	-18	3.2%	9%	0.6	-14%	1.7
Cc1cc(Cl)ccc1N(CC(=O)NCc1ccccc1)S(C)(=O)=O	-13	1.1%	3%	-1.8	-2%	-0.5
CN(C)N=Nc1nc2c([nH]1)c(=O)n(C)c(=O)n2C	-1	nt	10%[15.4 µM]	-1.4	4%	1.2
CC(C#Cc1ccc2c(c1)COc1c3ccccc3nn1-2)OC(C)(C)C (configuration not stated)	39	0.7%	?	nt	9%	-1.3
COc1ccc(S(=O)(=O)N2CCOCC2)cc1NC(=O)c1cccc(Cl)c1	25	1.2%	26%	1.0	4%	0.7
CCCCn1nnc(NC(=O)c2cc3ccccc3o2)n1	6	-2.0%	?	7.0	5%	0.9
CCN1CCN(C(=O)CCc2nnc(CCc3ccccc3OC)o2)[C@@H](C)C1=O	23	0.5%	8%	2.5	1%	3.4
COc1ccc(CCNC(=S)NC(=O)c2c(-c3ccccc3Cl)noc2C)cc1OC	-12	0.2%	-13%	1.1	1%	1.2
COc1ccc(C2NC(=O)NC(O)(C(F)(F)F)C2C(=O)c2ccc(C)cc2)cc1 (configuration not stated)	36	0.3%	-53%	0.1	-5%	0.2
Cc1ccccc1NC(=O)CSc1nc(=O)n(CCN2CCOCC2)c2c1CCCC2	3	-2.6%	-3%[15.4 µM]	nt	3%	0.6
CN(C)c1ccc(C=c2c3ccccc3n3c2cc(-c2ccc(Cl)cc2)[n+]3C)cc1	78	0.3%	-3%	nt	-11%	0.0
CCOC(=O)CSc1nc(-c2ccc(OC)cc2)ns1	10	-2.4%	7%	5.0	-2%	1.5
COc1cc(C(=O)NCc2cccc3ccccc23)ccc1OCc1ccccc1	9	-20%	-26%	2.5	3%	3.3
COc1ccc(-c2csc(-n3ncc(-c4cccs4)c3N)n2)cc1	7	-8.8%	15%	4.5	6%	0.4
Next entries
SMILES	TRPML1 inh	ClpP mod	gsp ag	Menin-MLL FL inh	gsp antag	TRPML1 ag
CCCCCn1c(=N)n(CC(O)COc2ccccc2OC)c2ccccc21 (configuration not stated)	-4&45	-0.1%&0.9%	2%&1%	5.7&2.4	13%&15%	-1.4&0.3
O=C(c1cccs1)N1CCN(c2ncc(Br)cn2)CC1	-28	-4.9%	-18%	4.4	-4%	1.4
O=C(O)c1ccc(N2C(=O)CC(N3CCN(c4cccc(Cl)c4)CC3)C2=O)cc1 (configuration not stated)	0	0.0%	-1%	-2.1	4%	-0.1
CCCCC(=O)N(CCOC)c1nnc(-c2ccc(OC)cc2)s1	-2	-23%	?	1.3	-5%	-0.7
COc1cccc(NC(=S)/C(=C(\[O-])c2ccc(C)c([N+](=O)[O-])c2)[n+]2ccccc2)c1	-18	-4.4%	8%	3.4	4%	3.2
COC(=O)C(C)Oc1ccc2c(c1)O/C(=C\c1ccco1)C2=O (configuration not stated)	-6	nt	-70%[inhibitor]	13	-16%	-0.4
NC(=S)N/N=C/c1coc2c(ccc3ccccc32)c1=O	-13	3.0%	-15%	2.2	12%	1.6
Cc1ccc(-c2ccnc3c(Cl)c(C)nn23)cc1	-5	nt	-2%	-2.1	-8%	1.7
O=C(O)c1c2c(nc3ccccc13)/C(=C/c1cccc([N+](=O)[O-])c1)CCC2	19	nt	10%[15.4 µM]	0.1	?	-0.2
O=C1c2ccccc2C(=O)N1C1(C(=O)NC2(C(=O)O)CCCC2)CCCC1	6	1.5%	7%[15.4 µM]	nt	3%	0.1

2 of these compounds, set out differently:
smiles,TRPML1 inh,ClpP mod,gsp ag,Menin-MLL FL inh,gsp antag,TRPML1 ag
Cc1cc(=O)oc2cc(OCC(=O)N3CC(=O)Nc4ccccc43)c(Cl)cc12,21,3.4%,5%,nt,-8%,-0.3
CCN(CC)CCNS(=O)(=O)c1ccc(C(=O)NN)cc1,14,nt,-3%,0.3,-41%,-0.2

Rows are unselected, and some 2.1% of all compounds hit somewhere here.
